VCAM-1 down imaging: inhibitors of TNFa-induced VCAM-1 surface display, imaging, high-content imaging, pooled HUVEC, TNFa stimulus (AID 456). HUVEC TNFa-induced VCAM-1 surface expression, immunofluorescence imaging; numbers were filed only for top-ranked candidate wells. inhibition, % at 5 µM; hits with a dose series show IC50 in µM. 10,000 compounds, 0.2% hits;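 active = top tenth filtered wells with inhibition above zero that passed visual or statistical confirmation; inactive = the rest, including hits rejected on review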;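 note: 0% = stimulated vehicle wells and 100% = unstimulated cells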
VCAM-1 inhibition: suppression of endothelial VCAM-1 upregulation – cell-based, plate reader, pooled HUVEC, TNFa stimulus (AID 454); 10,000 compounds, 0.2% hits; inhibition, % at 5 µM; HUVEC TNFa-induced VCAM-1 surface immunofluorescence, plate reader; numbers were filed only for top-ranked candidate wells;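 active = compound among top-ranked inhibitors of TNF-induced VCAM-1 adhesion protein staining, with the hit upheld by image or statistical review; inactive = the rest, including hits rejected on review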;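 note: 0% = TNFa with vehicle and 100% = cells without TNFa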
FPRL1 ligand: ligands of human FPRL1, also counter-screen for FPR ligands; 24,000 compounds, 0.3% hits; FPRL1-expressing cells, fluorescent ligand binding inhibition, flow cytometry; inhibition, %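 (tested at 6.7 µM)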;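 note: 0% = buffer alone and 100% = receptor blocker peptide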
Target sequence (P25090 whole entry, looked up): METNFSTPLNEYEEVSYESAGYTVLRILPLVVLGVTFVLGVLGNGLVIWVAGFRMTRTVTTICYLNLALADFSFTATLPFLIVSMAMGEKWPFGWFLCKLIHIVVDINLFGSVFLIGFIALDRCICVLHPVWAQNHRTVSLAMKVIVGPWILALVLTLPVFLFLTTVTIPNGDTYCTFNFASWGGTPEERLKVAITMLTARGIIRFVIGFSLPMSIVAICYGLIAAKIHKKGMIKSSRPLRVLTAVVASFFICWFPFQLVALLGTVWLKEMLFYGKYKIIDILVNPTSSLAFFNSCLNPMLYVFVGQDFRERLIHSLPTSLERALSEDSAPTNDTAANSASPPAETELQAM
FPR ligand: ligands of human FPR, also counter-screen for FPRL1 ligands; P21462; FPR-expressing cells, fluorescent ligand binding, flow cytometry; inhibition, %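 (tested at 6.7 µM)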; 24,000 compounds, 0.74% hits;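 note: 0% = buffer wells and 100% = receptor blocker peptide wells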
Target sequence (P21462 whole entry, looked up): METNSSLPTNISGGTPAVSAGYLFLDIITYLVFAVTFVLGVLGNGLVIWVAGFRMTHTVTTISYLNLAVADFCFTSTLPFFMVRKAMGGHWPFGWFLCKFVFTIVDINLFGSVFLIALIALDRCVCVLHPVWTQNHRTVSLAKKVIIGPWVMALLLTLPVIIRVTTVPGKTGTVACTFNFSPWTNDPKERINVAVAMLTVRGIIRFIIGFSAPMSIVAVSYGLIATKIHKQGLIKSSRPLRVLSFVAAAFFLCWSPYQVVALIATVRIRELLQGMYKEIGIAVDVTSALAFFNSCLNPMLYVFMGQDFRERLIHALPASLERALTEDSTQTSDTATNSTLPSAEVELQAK
VCAM-1 augmentation: enhancers of VCAM-1 display on endothelial cells, imaging, high-content imaging, pooled HUVEC, TNFa stimulus (AID 457). calls only. 10,000 compounds, 0.2% hits. Pooled HUVEC, TNFa-induced VCAM-1 immunofluorescence imaging; hits of this screen are not shown here;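 active = a top-ranked rise in VCAM-1 staining upheld on image or statistical review; inactive = the rest, including candidates rejected on review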;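 note: compounds tested at 5 µM in the well; cells exposed to compound for 24 hours before fixing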
The depositor's hits bear a star; i = inactive; nt = no result given.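 Rule for the calls, unless noted: active = mean above 30%; inconclusive = self-fluorescent; inactive = the rest.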

SMILES	VCAM-1 down imaging	VCAM-1 inhibition	FPRL1 ligand	FPR ligand	VCAM-1 augmentation
c1ccc2c(c1)[nH]c1c(N3CCC4(CC3)OCCO4)ncnc12	i	i	-4	-5	i
CN(C)CCCN1C(=O)C(O)=C(C(=O)c2cc3ccccc3o2)C1c1ccccn1 (stereo unspecified)	nt	nt	0	-4	nt
Cc1ccc(-n2c(SCC(=O)NCC3CCCO3)nc3n[nH]c(C)c3c2=N)cc1Cl (stereo unspecified)	nt	nt	6	1	nt
CCn1nc(CC(=O)Nc2nnc(CC(=O)N3CCCCC3)s2)c2ccccc2c1=O	i	i	6	1	i
C=CCSc1ncccc1C(=O)NCc1ccccc1	nt	nt	-6	-6	nt
CC(=O)Nc1c(C(=O)C2CC2)oc2ccccc12	i	i	2	-7	i
Cc1cc(SCc2ccccc2)nc(=O)[nH]1	nt	nt	25	12	nt
O=C1c2ccccc2N2C(=O)c3ccccc3C2N1O (stereo unspecified)	nt	nt	3	-3	nt
COc1ccccc1N1CCN(C(=O)C2CCN(S(=O)(=O)c3ccc(F)cc3)CC2)CC1	i	i	-1	-13	i
O=C(CN1C(=O)CSc2ccccc21)NC1CCCC1	nt	nt	2	8	nt
CC1(C)NC(=O)N(CC(O)CN2CCCC2)C1=O (stereo unspecified)	i	i	5	-5	i
O=S(=O)(NCCc1ccccn1)c1cccs1	i	i	4	0	i
Cc1cc(Cl)c(S(=O)(=O)N2CCN(c3ccc(F)cc3)CC2)cc1OCC(N)=O	i	i	-3	3	i
CC(C)[C@H](NC(=O)OC(C)(C)C)c1nnc(SCC(=O)Nc2ccc(Br)cc2)o1	i	i	0	6	i
COc1ccc(N(C(=O)c2ccc(S(=O)(=O)N3CCOCC3)cc2)C2C=CS(=O)(=O)C2)cc1 (stereo unspecified)	nt	nt	2	4	nt
CS(=O)(=O)Nc1ccc(C(=O)NCc2ccc3c(c2)OCO3)cc1	i	i	-3	-10	i
COc1ccc(-n2c(Cc3cccn3C)nnc2SCC(=O)Nc2ccc3c(c2)OCCO3)cc1	nt	nt	-8	3	nt
CCCN1CCN(CCCNC(=O)Cn2nc(-c3ccc(C)cc3)ccc2=O)CC1	nt	nt	-1	2	nt
Cc1oc(-c2ccccc2F)nc1CN1CCC(C(=O)NCc2cccnc2)CC1	nt	nt	-5	-8	nt
CCOC(=O)Nc1c(O)ccc2oc(C)c(-c3ccccc3)c12	i	i	19	16	i
CCC(Sc1nc(C)cc(=O)[nH]1)C(=O)Nc1nc2c(s1)CCCC2 (stereo unspecified)	nt	nt	10	21	nt
COCCCN(C(=O)Nc1ccccc1)C(C)c1ccncc1 (stereo unspecified)	nt	nt	-3	-2	nt
Fc1ccc(C(c2nnnn2Cc2ccco2)N2CCN(C3CCCCC3)CC2)cc1 (stereo unspecified)	i	i	1	6	i
O=C(CSc1nc2ncccc2[nH]1)Nc1ccc2c(c1)OCCO2	i	i	-2	1	i
Brc1cccc(-c2nnc3sc(CN4CCCCC4)cn23)c1	nt	nt	21	5	nt
C(=N\n1cncn1)/c1ccc(N2CCOCC2)cc1	nt	nt	-4	-7	nt
COc1ccc(NC(C)=O)cc1NC(=O)CN1CCN(c2ccccn2)CC1	i	i	-1	6	i
COc1ccccc1OCc1ccc(C(=O)NCCN(C)C)o1	nt	nt	-1	-2	nt
Cn1c(=O)[nH]c(=O)c2c1ncn2CCN1CCOCC1	i	i	3	-3	i
CCOC(=O)CSc1nnc(CNC(=O)c2ccc(S(=O)(=O)N3CCCCC3)cc2)n1C	nt	nt	-1	-3	nt
CCOC(=O)C1CCN(C(=O)c2oc3ccc(S(=O)(=O)N4CC(C)CC(C)C4)cc3c2C)CC1 (stereo unspecified)	nt	nt	-8	-3	nt
CCn1c(SCC(=O)c2ccc(F)cc2)nnc1-c1ccoc1C	i	i	-7	-1	i
COc1ccc(N(CC(=O)Nc2cc(OC)ccc2OC)S(=O)(=O)c2c(C)nn(C)c2C)cc1	nt	nt	-3	-5	nt
Cn1c(SCCN2CCCCC2)nnc1-c1ccccc1Br	i	i	0	0	i
CC1(C)CC2(CCO1)OC(=O)CC2C(=O)NCCc1ccccc1 (stereo unspecified)	nt	nt	-6	-3	nt
COc1cccc(CNC(=O)CCn2c(=O)oc3ccccc32)c1	i	i	1	4	i
Cc1cc(NC(=O)CSc2nccn2-c2ccc(F)cc2)no1	i	i	9	-3	i
O=C(Cn1ncc2c(=O)oc3ccccc3c21)N1CCN(C(=O)c2ccco2)CC1	nt	nt	0	0	nt
CC(=O)NCCn1c(SCc2cc(=O)n3cc(Cl)ccc3n2)nc2ccccc2c1=O	nt	nt	-1	-1	nt
COc1ccc(-n2c(C)nc3cc(C(=O)N4CCOCC4)ccc32)cc1	nt	nt	1	1	nt
Cc1c(C(=O)NCc2ccco2)oc2ccc(S(=O)(=O)N3CCC4(CC3)OCCO4)cc12	nt	nt	-3	2	nt
COc1cc(NS(=O)(=O)c2ccc3c(c2)oc(=O)n3C)cc(OC)c1OC	nt	nt	0	0	nt
CCOC(=O)C1CCCN(C(=O)Cn2cccc2C(=O)c2ccccc2)C1 (stereo unspecified)	nt	nt	6	9	nt
Cc1oc2c(c1C(=O)NCc1ccccc1)CCCC2	i	i	2	4	i
CCN(CC)c1nc(N(CC)CC)[nH]c(=O)n1	i	i	1	0	i
CCN(CC(=O)Nc1ccc2c(c1)CCC2)Cc1nc2ccccc2c(=O)[nH]1	i	i	2	-2	i
CCc1ccc(NC(=O)N(CCCN2CCOCC2)C(C)c2cc3cccc(OC)c3o2)cc1 (stereo unspecified)	nt	nt	-3	-1	nt
CCOC(=O)C1(c2ccccc2)NC(c2ccc(N(C)C)cc2)C2C(=O)N(C)C(=O)C21 (stereo unspecified)	i	i	0	-5	i
CCOC(=O)N1CCC(NC(=O)CS(=O)Cc2nc(-c3ccc(OC)c(OC)c3)oc2C)CC1 (stereo unspecified)	nt	nt	7	-1	nt
Cc1nc2ccc(S(=O)(=O)N(C)CC(=O)N3CCc4ccccc43)cc2s1	nt	nt	-11	-4	nt
COc1cc(C2/C(=C(/O)c3ccc(F)cc3)C(=O)C(=O)N2CCCC(=O)O)ccc1O (stereo unspecified)	nt	nt	-2	-5	nt
Cc1ccccc1CSc1nc2n(n1)C(c1cccs1)C1=C(CCCC1=O)N2 (stereo unspecified)	nt	nt	-8	11	nt
CCOC(=O)c1ccc(NC(=O)C2=C(C)Nc3nc(CCCO)nn3C2c2ccc(OC)cc2)cc1 (stereo unspecified)	nt	nt	-4	1	nt
Cc1cc(C)nc(SCc2csc(N)n2)n1	i	i	2	0	i
CC(C)N(Cc1nc(-c2ccccc2)no1)C(=O)c1ccc(Cl)cc1	nt	nt	-5	2	nt
COc1ccccc1Nc1nc(C)cs1	nt	nt	-5	-2	nt
CC(=O)Nc1sc2c(c1C#N)CCCCC2	i	i	-2	-7	i
Clc1c(CSc2nc3ccccc3o2)nc2sccn12	i	i	-3	0	i
COc1ccc(-n2c(Cn3c(=O)sc4ccccc43)nnc2SCC(N)=O)cc1	nt	nt	-8	-6	nt
CCOc1cc(C2C3=C(CCCC3=O)N(C)C3=C2C(=O)CCC3)cc(Cl)c1O	i	i	-2	6	i
Carrying on.
SMILES	VCAM-1 down imaging	VCAM-1 inhibition	FPRL1 ligand	FPR ligand	VCAM-1 augmentation
CNC(=O)c1ccccc1NC(=O)c1c(O)c2c([nH]c1=O)CCCC2	i	i	-5	-5	i
CCOC(=O)C1CCCN(c2ncnc3c2cnn3-c2cccc(C)c2)C1 (stereo unspecified)	nt	nt	-8	2	nt
O=C(CSc1nc(C2CCCCC2)n(-c2ccccc2)n1)NCCN1C(=O)CSC1=O	i	i	-3	2	i
c1ccc2c(c1)CCN(c1nc3cc4c(cc3s1)OCO4)C2	nt	nt	4	9	nt
CCOc1cc(N2C(=O)CC3CS(=O)(=O)CC32)c(OCC)cc1NC(=O)c1ccccc1 (stereo unspecified)	nt	nt	2	-4	nt
Cc1ccc(-c2[nH]nc3c2C(c2ccccc2OC(=O)N2CCOCC2)C(C#N)=C(N)O3)cc1 (stereo unspecified)	nt	nt	5	1	nt
CC(=O)c1ccc(NC(=O)CSc2nnc(Cc3cccn3C)n2-c2ccc(F)cc2)cc1	nt	nt	16	11	nt
CCOC(=O)C(C)(C)Sc1ncnc2nc[nH]c12	nt	nt	-9	5	nt
Cc1occc1-c1nnc(SCC(=O)N2CCc3ccccc32)o1	i	i	-8	3	i
CN=C(Nc1ccc2c(c1)OCO2)SC1CC(=O)N(c2ccccc2)C1=O (stereo unspecified)	i	i	-3	-5	i
CC1CC(C)CN(CCCNC(=O)c2cn(C)c3ccc(S(=O)(=O)N4CCCC4)cc3c2=O)C1 (stereo unspecified)	nt	nt	4	-19	nt
CC(=O)N1CSCC1C(=O)N1CCN(c2ccc(N3CCOCC3)nn2)CC1 (stereo unspecified)	nt	nt	0	-5	nt
O=C(NCCSc1c[nH]c2ccccc12)c1ccco1	i	i	1	0	i
CCN1CCCC1CNC(=O)Cn1cc2c(n1)CCC(C)C2 (stereo unspecified)	nt	nt	0	-12	nt
Cc1cc2ccccc2c(=O)n1CC(=O)NCC(=O)N1CCN(c2ccccc2)CC1	nt	nt	-6	-6	nt
COc1ccccc1NC(=O)CSc1nc2ccccc2n1C(C)=O	nt	nt	-1	4	nt
COc1ccc(CNC(C)C2COc3ccccc3O2)c(OC)c1 (stereo unspecified)	nt	nt	-3	-2	nt
CCCCN(CCCNC(=O)C1CCN(S(=O)(=O)N2CCOCC2)CC1)Cc1ccccc1	nt	nt	-8	-4	nt
Cc1ccc(C)c(N2C(=O)CN=C2Nc2ccccc2Cl)c1	i	i	1	-2	i
O=C(O)Cc1cc(I)c(Oc2ccc(O)c(I)c2)c(I)c1	i	i	2	-5	i

Four successive compounds already listed:
SMILES	VCAM-1 down imaging	VCAM-1 inhibition	FPRL1 ligand	FPR ligand	VCAM-1 augmentation
COc1ccccc1NC(=O)CSc1nc2ccccc2n1C(C)=O	nt	nt	-1	4	nt
COc1ccc(CNC(C)C2COc3ccccc3O2)c(OC)c1 (stereo unspecified)	nt	nt	-3	-2	nt
CCCCN(CCCNC(=O)C1CCN(S(=O)(=O)N2CCOCC2)CC1)Cc1ccccc1	nt	nt	-8	-4	nt
Cc1ccc(C)c(N2C(=O)CN=C2Nc2ccccc2Cl)c1	i	i	1	-2	i

Next section
SMILES	VCAM-1 down imaging	VCAM-1 inhibition	FPRL1 ligand	FPR ligand	VCAM-1 augmentation
Cc1n[nH]c(C)c1S(=O)(=O)N1CCN(C2CCCCC2)CC1	nt	nt	18	8	nt
O=C1CCCC2=C1C(O)(C(F)(F)F)C(=O)N2Cc1ccccc1 (stereo unspecified)	nt	nt	-4	0	nt
FC(F)(F)c1cc(-c2ccco2)nc(-n2nc(C(F)(F)F)cc2C2CC2)n1	nt	nt	11	-8	nt
Cc1ccccc1CN1CCN(C(=O)c2cccc(F)c2)CC1	i	i	2	-4	i
O=C(Nc1cccnc1)C1(F)C(F)(F)C(F)(F)C(F)(F)C(F)(F)C1(F)F	nt	nt	-2	-3	nt
CC1CCCCN1CCNC(=O)C1CC(=O)N(c2ccc(F)c(Cl)c2)C1 (stereo unspecified)	nt	nt	-5	-8	nt
CC(C)(C)n1nnnc1C(c1ccccc1)N1CCc2ccccc2C1 (stereo unspecified)	i	i	5	6	i
COCCN(C(=O)CCC(=O)Nc1ccccn1)C(C(=O)NC1CCCC1)c1ccc(OC)cc1 (stereo unspecified)	i	i	-3	8	i
CN(C)c1ccc(CNn2cnnc2)cc1	i	i	1	6	i
CCN(CC)CCNC(=O)c1ccc(CS(=O)(=O)c2ccc(Br)cc2)o1	i	i	2	-2	i

Single records, as listed above. Screens in order: VCAM-1 down imaging, VCAM-1 inhibition, FPRL1 ligand, FPR ligand, VCAM-1 augmentation
Record of `FC(F)(F)c1cc(-c2ccco2)nc(-n2nc(C(F)(F)F)cc2C2CC2)n1` = nt, nt, 11, -8, nt
Record of `CC(C)(C)n1nnnc1C(c1ccccc1)N1CCc2ccccc2C1` (stereo unspecified) = i, i, 5, 6, i
Record of `CC1CCCCN1CCNC(=O)C1CC(=O)N(c2ccc(F)c(Cl)c2)C1` (stereo unspecified) = nt, nt, -5, -8, nt
Record of `O=C1CCCC2=C1C(O)(C(F)(F)F)C(=O)N2Cc1ccccc1` (stereo unspecified) = nt, nt, -4, 0, nt

Screening results deposited in PubChem BioAssay by several laboratories.

The list is partial; count on the stated rates, not on these rows.
